# Compound activity from PubChem.
# Tg IFNy HTS: T. gondii growth inhibition under IFN-gamma; Toxoplasma gondii growth in IFN-gamma-treated host cells; stronger effect = lower value; reference of the scale not given here; AID 1259416; activity change, negative = inhibition, %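 (about 20 µM by stock and volumes)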; 69,000 tested, 3.8% active;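 active = below -70%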;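 note: host cells are HeLa cells infected with Toxoplasma gondii; parasite growth read as luciferase light; one replicate is shown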
# The depositor's hits bear a star; i = inactive; & = joins results of further samples.
SMILES,Tg IFNy HTS
COc1ccc(CCN2C(=O)N(C)C(=O)C23CCN(Cc2cnn(-c4ccc(F)cc4)c2)CC3)cc1,11
CCc1ccc(C(=O)Nc2ccc(-c3nc(Cn4cc(C)cn4)c(C)o3)cc2)cc1,27
COc1cc(OC)cc(C(=O)N2CCC(C)(C(=O)NCc3ccc(F)cc3F)CC2)c1,5
CCOc1ccc(NC23SCC(=O)C2CCc2ccccc23)cc1 (stereo unspecified),42
O=C1ON=C(c2ccc(Cl)cc2)/C1=C/c1ccc(O)cc1,20
COc1nc(C)cc(C)c1CNC(=O)CCC(=O)NC1CCCC1,162
CCc1cc(C(=O)Cc2nc3ccccc3s2)c(O)cc1O,96
COc1ccc(CNC(=O)CC2N=C3c4ccccc4N=C(SCc4cc(=O)n5cc(Cl)ccc5n4)N3C2=O)cc1 (stereo unspecified),-11
COc1ccc(-c2noc(-c3ccc(NCc4ccncc4)nc3)n2)cc1,226
CO[C@H]1CN(C)C(=O)c2cc(NC(=O)C3CCCCC3)ccc2OC[C@H](C)N(Cc2cccnc2)C[C@@H]1C,-60
Cn1c(CC2CCNCC2)nnc1SCc1noc(C2CCCO2)n1 (stereo unspecified),-8
Cc1cccc(S(=O)(=O)N2C[C@H]3[C@@H](c4ccccc42)[C@H](CO)N3CC2CCCC2)c1,21
COCC(=O)N1C[C@@H]2[C@H](c3ccccc31)[C@@H](CO)N2Cc1cc(F)ccc1F,1
CCOc1ccccc1-c1nc(Cn2nnc(C(=O)Nc3ccc(F)cc3F)c2C)c(C)o1,68
CS(=O)(=O)N1CCC(CC(=O)Nc2ccccc2CN2CCCC2)CC1,2
CCc1cc(CC)c2sc3ccccc3c(=O)c2c1,22
CCN1c2cc(C)ccc2-n2cccc2C12CCN(C(=O)NCc1ccc(C)cc1)CC2,-62
Cc1nc(C2CCNCC2)cc(N2CCOc3ccccc3C2)n1,-2
CCOc1ccc(S(=O)(=O)NCCc2sc(-c3ccc(OC)cc3)nc2C)cc1,i
CC(C)CCN1CCn2c(CO)nnc2C1,-26
CCn1c(CN[C@@H]2CCCN(C(C)=O)[C@H]2c2ccc(C)s2)nc2ccccc21,8
COc1cccc(C(=O)N2CCN(Cc3cn(CCO)nc3C)CC2)c1,0
Cc1cccc(-c2ccc(C3[C@@H]4CNC[C@H]3N4)cc2)c1 (stereo partly specified),16
CCOC(=O)c1[nH]c2cc(Cl)cc(Cl)c2c1CCC(=O)O,1
Cc1ccc(C(=O)N2CCn3cc(CN(C)Cc4ccco4)nc3C2)o1,-52
COC(=O)[C@@H]1C[C@H](NC(=O)c2ccc(Cl)s2)CN1C,11
CC(=O)N[C@H]1CCN(c2ccnc(C(=O)NCCC3=CCCCC3)c2)C1,14
c1cc(C2CCN(c3ncnc4c3CCNC4)CC2)ccn1,-11
O=C(c1ccco1)N1CCN(Cc2ccccc2)CC1,-2
COc1ccc(CN2C[C@@H]3CC[C@@](O)(c4ncccc4C)[C@@H]3C2)cc1,-51
CC(C)Oc1cc(CCC(=O)NC2CC(C)(C)Cc3nc(-c4ccncc4)ncc32)on1 (stereo unspecified),-26
COc1ccc(CCCNc2cc(Cn3c(C)nc4ccccc43)nc(C)n2)cc1OC,-2
CC(=O)Nc1ccc(S(=O)(=O)c2ccc(N)cc2)cc1,-22
COc1ccccc1-c1ccc(CNCC2(c3cccc(F)c3)CCOCC2)cc1,17
Cc1cccc2c(C(=O)N3CCC(Oc4cccnc4)CC3)cc(-c3ccncc3)nc12,-60
CCC(=O)N1CCC2(CC1)Nc1ccc(C)c(C)c1-n1cccc12,21
CCN1C(=O)C(CC(=O)Nc2ccc(F)cc2)N(Cc2ccco2)C1=S (stereo unspecified),15
CN(Cc1ccco1)C[C@H]1OC[C@H]2CCN(C(=O)c3ccsc3)C[C@H]21,-5
O=C(CSc1nnnn1C1CCCCC1)Nc1cccc(NC(=O)c2ccco2)c1,-3
COCC(=O)N1CCCC2(CCN(c3cnccn3)CC2)C1,-4
CN(C)S(=O)(=O)N1CC[C@@]2(C[C@H](N3CCCC3=O)CCO2)C1,-40
Cc1nc(-c2cccs2)sc1NC(=O)Nc1ccc(Cl)cc1,65
CN(C(=O)c1cc2cccnc2n(Cc2ccccc2)c1=O)C1CCCCC1,17
CC(C)(C)NC(=O)Cn1c(SCC(=O)NCc2ccco2)nc2ccccc21,-6
C[C@H]1CN([C@@H](C)CO)C(=O)c2cc(-c3ccncc3)cnc2O[C@H]1CN(C)C(=O)CN1CCOCC1,-7
COC(=O)c1ccccc1S(=O)(=O)Nc1ccc2c(c1)CCC(=O)N2C,47
Cc1[nH]cnc1CN(C)Cc1nc(CC(C)C)no1,-41
OC[C@H]1O[C@@H](n2cnc3c(N[C@H]4CCC[C@@H]4O)ncnc32)[C@H](O)[C@@H]1O,8&19
C=CCOCC1c2c(ncn2C)CCN1Cc1nccn1C (stereo unspecified),-34
C[C@@H]1CN([C@H](C)CO)C(=O)c2c(c3ccccc3n2C)-c2ccccc2CO[C@@H]1CN(C)C,-14

# Brought forward from above: 4 compounds; new compounds follow.
SMILES,Tg IFNy HTS
Cc1[nH]cnc1CN(C)Cc1nc(CC(C)C)no1,-41
OC[C@H]1O[C@@H](n2cnc3c(N[C@H]4CCC[C@@H]4O)ncnc32)[C@H](O)[C@@H]1O,8&19
C=CCOCC1c2c(ncn2C)CCN1Cc1nccn1C (stereo unspecified),-34
C[C@@H]1CN([C@H](C)CO)C(=O)c2c(c3ccccc3n2C)-c2ccccc2CO[C@@H]1CN(C)C,-14
O=C(COc1ccccc1)N1CCN(S(=O)(=O)c2cc3c4c(c2)CCN4C(=O)CC3)CC1,18
O=C(c1cccn1-c1ccc(F)cc1)C(F)(F)F,135
COc1cccc(-c2nc3c(s2)CN(C(=O)Nc2ccccc2C)CC3)c1,25
COCC(=O)N1CCc2c([nH]c3ccccc23)C1c1ccc(SC)cc1 (stereo unspecified),i
Fc1cccc(NC(=S)Nc2ccc3ccccc3c2)c1,-88*
Cc1ccc(CN2C[C@H]3[C@@H](C(=O)NC4CCC4)CCS(=O)(=O)[C@H]3C2)cc1,-41
Cc1c(NC(=O)c2sc3nc(-c4ccccc4)cn3c2C)c(=O)n(-c2ccccc2)n1C,20
O=C(C1CC1)N1C[C@@H]2[C@H](c3ccccc31)[C@@H](CO)N2C(=O)c1ccccc1,1
Cc1c(Cl)cccc1NC(=O)NCC(c1cccnc1)c1c[nH]c2ccccc12 (stereo unspecified),234
COc1c(F)ccc(C(=O)N(Cc2ccsc2)CC(C)C)c1F,51
CCCN1[C@H](CO)[C@H](c2ccc(C#CC(C)C)cc2)[C@@H]1CN(C)S(C)(=O)=O,-21
CCOC(=O)C(C#N)Cc1c(C)c(C)c(C)c(C)c1C (stereo unspecified),-24
Cc1nnc(N2C[C@@H](Oc3ccccn3)[C@@H]3OCCC[C@@H]32)s1,-46
CC(C)c1nc(CN(C)C(=O)c2ccc(-n3cnnn3)cc2)cs1,-4
Cc1ccc2c(c1)NC1(CCN(S(=O)(=O)c3ccc(C4CCCCC4)cc3)CC1)c1cccn1-2,-2
Cc1ccc(NC(=O)NCC(c2cccnc2)c2c[nH]c3ccccc23)c(C)c1 (stereo unspecified),274
CC(=O)NCCC(=O)N[C@@H](Cc1cnc[nH]1)C(=O)O,2
COc1ccc(CNC(=O)c2nc(Nc3ccccc3)c3ccccc3n2)cc1OC,-42
N#C/C(=C\c1ccc(O)c(O)c1)C(=O)Nc1ccccc1,3&10
COc1ccc(-c2nnsc2C(=O)O)cc1,-30

# The closing 2 compounds of the section before lead into the next.
SMILES,Tg IFNy HTS
N#C/C(=C\c1ccc(O)c(O)c1)C(=O)Nc1ccccc1,3&10
COc1ccc(-c2nnsc2C(=O)O)cc1,-30
O=C(Cc1ccc(N2CCC(N3CC4CCC3C4)CC2)cc1)NCCc1cccc(F)c1 (stereo unspecified),-12
C=CCN1CC(C(=O)N2CCCn3nc(C(=O)OC)cc3C2)CC1=O (stereo unspecified),8
Cc1ccc(CNC(=O)c2cc3cc(S(=O)(=O)N(C)C)ccc3n2Cc2ccncc2)cc1,-17
Nc1cccc2c(=O)[nH][nH]c(=O)c12,-24
CCOc1ccc2nc(-c3ccc(OC)c(OC)c3)cc(C(=O)O)c2c1,-11
CC1=C(C(=O)Nc2ccc(CN3CCC(C)CC3)cc2)C2(CCN(Cc3ccccc3)CC2)OC1=O,-63
O=C(c1cc(-c2ccsc2)n[nH]1)N1Cc2cnn(CCO)c2C1,21
CCS(=O)(=O)N1CCCn2cnc(COCc3ccco3)c2C1,2
Cc1cc(CN(CCO)Cc2cccnc2)c(C)n1Cc1cccnc1,-21
COc1ccc(C2c3nc[nH]c3CCN2C(=O)c2cn3cc(Cl)ccc3n2)cc1 (stereo unspecified),12
COCc1nc(NCCn2cccc2)c2cnn(C)c2n1,-8
Cc1nc2cc3c(cc2n1CC(=O)Nc1ccc2ncn(C)c2c1)OCCO3,10
NC(=O)C1CCN(C(=O)CSc2nc3c(c(-c4ccccc4)n2)CCCC3)CC1,4
CN(C)C(=O)N1CCC(c2nnc3ccc(C(=O)CC4CCOCC4)cn23)C1 (stereo unspecified),-7
CCn1nc(C)cc1-c1nnc(SC)n1-c1ccccc1,24
CNc1cc(CN(C)C(=O)C(C)(C)c2cccc(F)c2)nc(C2CCCN2C(C)=O)n1 (stereo unspecified),-15
CCc1cccc(NC(=O)Cn2c(=O)cc(C(=O)N3CCOCC3)c3ccccc32)c1,9
O=C(CC1Nc2ccccc2OC1=O)Nc1ccc(Cl)cc1 (stereo unspecified),i
CN(C)CCC1CN(C(=O)c2ccc(Cl)cn2)CCO1 (stereo unspecified),2
Cc1cc(C)n(C(=O)CCCCCCCC(=O)n2nc(C)cc2C)n1,12
Cc1oc(-c2ccc(NC(=O)Cc3cccc(F)c3)cc2)nc1Cn1cccn1,-87*
CC[C@H]1C/C=C\C[C@H](c2ccccc2)NC(=O)CCC(=O)N1,18
Cc1ccc(C)c(C(NC(=O)c2cc3ncccn3n2)c2cccnc2)c1 (stereo unspecified),-49
Cc1ccsc1CNc1ccc(C(=O)N2CCCC(Cn3ccnc3C)C2)cc1 (stereo unspecified),-29
CCOC(=O)c1nn(-c2ccc(C)cc2)cc1C#N,170
CCCCN(Cc1ccco1)C(=O)c1cc(C(C)=O)c(C)[nH]c1=O,3
CCCN(Cc1cccnc1)C(=O)c1ccccc1NC,0
Cc1nc2ccccn2c1-c1csc(NC(=O)c2ccc(Br)cc2)n1,-78*
CN1C[C@@H](O)COC[C@@H]2O[C@@H](CC(=O)NC3CCCC3)CC[C@H]21,-7
CS(=O)(=O)c1ccc(CN2CCCC(Cn3ccnc3)C2)cc1 (stereo unspecified),1
COc1cccc(-c2ccc3ccc(-n4ccc(C(=O)NCCc5cccnc5)n4)n3c2)c1,-32
CN1CCc2cc3c(cc2C(=O)Cc2ccc4c(c2C1)OCO4)OCO3,21
CCc1nc(-c2nc3c([nH]2)CC(c2ccc(Cl)cc2)CNC3=O)no1 (stereo unspecified),-48
Clc1cccc(Cl)c1NC1=NCCN1,-26&-28
C=CCOC1CC2COCC(C1)N2Cc1cccc(F)c1 (stereo unspecified),-1
CC=Cc1ccc2n(c1=O)C[C@@H]1[C@@H](CO)[C@H](C(=O)N[C@@H](C)c3ccccc3)N(C(=O)c3ccccn3)[C@H]21 (mixture of isomers),9
CCn1nc(C)cc1C(=O)n1nc(C)c(Sc2ncccn2)c1C,6
CCc1cc(-c2ccc(C(C)N3CCOCC3)cc2)ccc1NC(C)=O (stereo unspecified),3
COCC(=O)N1[C@H](C#N)[C@@H](c2ccccc2-c2ccccc2F)[C@H]1CO,14
CC(C)C(N)=O,10
COc1cccc(OC)c1-c1c(-c2ccccc2)ncn1CC1(CO)CCC1,18
Cc1nc(CN2CCN(CC(=O)Nc3ccc(-n4ccnc4)cc3)CC2)cs1,1
CN(C)C1CC2(CCN(S(=O)(=O)c3cccs3)CC2)c2ccccc21 (stereo unspecified),-69
COc1cc(=O)n(C)c2c(OCC(O)C(C)(C)O)cccc12 (stereo unspecified),-39
COc1cc2cc(C)nc(Cc3cccc4ccccc34)c2cc1OC,20
Cc1occc1C(=O)N1CCC2(CC(Nc3ncccc3F)CO2)C1 (stereo unspecified),7
CCc1c2c(nc3ccc(O)cc13)-c1cc3c(c(=O)n1C2)COC(=O)[C@]3(O)CC,-86*
CCOc1ccccc1-c1noc(-c2c(O)c3cc(F)ccc3n(C)c2=O)n1,17
CC(=O)c1c(C)nn(CC(=O)N2C[C@H]3CC=CC[C@H]3C2)c1C,5
COc1cccc2c1OCCCN(C(=O)c1c(C)cc(=O)oc1C)C2,-16
# Going on with the list.
SMILES,Tg IFNy HTS
Cc1cccc(-c2nc(Cn3nnc(-c4nc(-c5ccncc5)no4)c3C)c(C)o2)c1,18
OCc1cc(-c2cccc(N3CCNCC3)n2)ccc1F,0
Cc1noc(-c2ccc(Cl)cc2)c1NC(=O)NN1CCCCC1,-33
CS(=O)(=O)N1CCn2c(COCc3cccnc3)nnc2C1,16
COCCN(C)C(=O)c1cc(-c2ccn(CC3CC3)n2)n2ccccc12,1
CN(CCCc1cnn(C)c1)C(=O)C(O)C(F)(F)F (stereo unspecified),-5
CO[C@@H]1CN(C)C(=O)c2ccc(NC(=O)c3cccc(F)c3)cc2OC[C@H](C)NC[C@@H]1C,56
Cc1nc(N2CCOCC2)nc2c1COCC21CCN(Cc2cccnc2)C1 (stereo unspecified),-6

# Taken from the results shown, 4 compounds:
SMILES,Tg IFNy HTS
CS(=O)(=O)N1CCn2c(COCc3cccnc3)nnc2C1,16
COCCN(C)C(=O)c1cc(-c2ccn(CC3CC3)n2)n2ccccc12,1
CN(CCCc1cnn(C)c1)C(=O)C(O)C(F)(F)F (stereo unspecified),-5
CO[C@@H]1CN(C)C(=O)c2ccc(NC(=O)c3cccc(F)c3)cc2OC[C@H](C)NC[C@@H]1C,56

# Only part of the results is shown; rates above refer to the full screens.
